Rce1 inhib: inhibitors of yeast Ras-converting enzyme; Q03530; yeast membranes, quenched prenylated peptide cleavage fluorescence; calls only; 290,000 tested, 0.27% active; AID 2563;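 active = fall in fluorescence gain of 50% or more versus controls, with final raw signal at or below 3038400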;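 note: plate controls were neutral control wells for no effect and wells lacking membranes for full effect; tested at 10 µM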
eIF4H FP inh: inhibitors of RNA binding by human eIF4H; Q15056; eIF4H fluorescence polarization binding assay; inhibition, % at 35 µM; 290,000 tested, 0.94% active; AID 2012;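 active = 50% or more with normal probe brightness, or confirmed in later tests; about a fifth of its hits are not listed in these tables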;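 note: calls also rest on retests at 20 µM and on dose response follow-up; 0% = protein and probe with vehicle and 100% = probe without protein; strong numbers were not always called active; many hits fall short of the cut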
MT1-MMP act inh: inhibitors of human MT1-MMP activation. GFP/RFP ratio change, % at 20 µM. HT1080 RFP-PRO-GFP cells, GFP/RFP ratio fluorescence, overnight; percent of plate control window, DMSO zero. P50281. 360,000 tested, 0.061% active;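 active = GFP/RFP ratio change of at least 30% with cell ATP level not reduced by more than half and red fluorescence within 50% of control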; note: strong numbers were not always called active
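Assay system: RFP-PRO-GFP reporter HT1080 cells; read-out basis: GFP/RFP fluorescence ratio; benchmarks: DMSO wells and RFP-L50D-GFP cells; doses: 20 µM single dose, 1% DMSO; schedule: overnight cell settling, then overnight compound exposure, 37 °C, 5% CO2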
UUG fidelity: yeast start codon fidelity modulation; activity score, % at 18.7 µM; AID 602363; 350,000 tested, 0.13% active; S. cerevisiae UUG-firefly luciferase reporter, luminescence/redox ratio;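 active = replicate mean at a twofold rise or more, about +100% in these data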;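 note: firefly luciferase made from a UUG start codon reports start codon fidelity; reporter light over untreated wells divided by growth signal over untreated wells; some hits fall short of that in this replicate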
PABP FP inh: PABP-poly(A) binding inhibition. PABP-poly(A) RNA binding, fluorescence polarization. inhibition, % at 35 µM. 290,000 tested, 1% active;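 active = 50% or more with normal probe brightness, or confirmed in later tests; about a fifth of its hits are not listed in these tables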;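 note: calls also rest on retests at 20 µM and on dose response follow-up; controls were probe without protein and protein plus probe with vehicle; some compounds called inactive have numbers as strong as hits; many hits fall short of the cut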
Target sequence (P11940 whole entry, looked up): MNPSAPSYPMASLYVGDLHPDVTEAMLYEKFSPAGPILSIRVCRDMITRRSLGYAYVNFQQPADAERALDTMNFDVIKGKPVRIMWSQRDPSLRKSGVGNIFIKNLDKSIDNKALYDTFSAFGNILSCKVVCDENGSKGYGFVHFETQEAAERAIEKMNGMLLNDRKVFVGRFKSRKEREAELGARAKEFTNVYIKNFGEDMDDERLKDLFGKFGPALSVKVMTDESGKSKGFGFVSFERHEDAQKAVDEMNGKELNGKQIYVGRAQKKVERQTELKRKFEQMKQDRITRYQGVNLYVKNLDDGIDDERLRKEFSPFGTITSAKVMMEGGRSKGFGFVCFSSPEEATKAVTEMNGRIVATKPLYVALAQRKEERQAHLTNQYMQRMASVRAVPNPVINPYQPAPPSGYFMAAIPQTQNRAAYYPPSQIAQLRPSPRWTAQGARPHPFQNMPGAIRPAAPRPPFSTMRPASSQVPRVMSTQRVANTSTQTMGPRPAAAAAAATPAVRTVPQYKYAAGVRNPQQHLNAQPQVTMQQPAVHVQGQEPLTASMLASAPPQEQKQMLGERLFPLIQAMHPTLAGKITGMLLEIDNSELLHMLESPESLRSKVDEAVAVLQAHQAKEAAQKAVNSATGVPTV
Env fusion inh: HIV envelope-mediated fusion inhibition; inhibition, % at 12.3 µM; 360,000 tested, 1.1% active; HeLa-JRFL Env/CEM21 cell fusion, luciferase;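 active = mean replicate inhibition score of at least 50 and every replicate individually at or above 50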;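 note: 0% = plate neutral controls and 100% = maraviroc near 300 nM; one replicate is shown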
CSC inhib: cancer stem cell inhibition | cancer stem cell-like cells viability, luminescence | inhibition, % at 7.5 µM | 300,000 tested, 1.1% active;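 active = mean at 75% or more and at least half the replicates too; tested in HMLE shEcad cells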;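 note: 0% = median of negative and 100% = median of positive control wells; the first replicate is given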
eIF4H FP inh retest: further read-out of eIF4H FP inh, marked with its call; inhibition, %; compound at 20 µM; confirmation average;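 mean of two retest wells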
PABP FP inh retest: recorded beside PABP FP inh, whose call it bears; inhibition, %; compound at 20 µM; confirmation repeats;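 mean of two retest wells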
MT1-MMP act inh RFP: also measured in MT1-MMP act inh; calls as there; RFP signal change, %; measured here: RFP expression control read;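 0 = vehicle wells; hits needed this value within 50% of zero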
* = called active by the depositor; i = inactive; nt = not tested or not shown.

SMILES	Rce1 inhib	eIF4H FP inh	MT1-MMP act inh	MT1-MMP act inh RFP	UUG fidelity	PABP FP inh	Env fusion inh	CSC inhib	others
Oc1ccc(/C=N/Nc2ccnc3cc(Cl)ccc23)c(O)c1O	nt	67*	-5	17	4	19	-8	-4	eIF4H FP inh retest=88*;PABP FP inh retest=44
C/C(=N\NC(=O)c1csc(C)c1C)c1ccc(Cl)s1	i	0	3	4	-14	9	-67	2
O=C(c1ccc(F)cc1)N1CCN2C(=O)c3ccccc3C12c1ccc(Cl)cc1 (stereo unspecified)	i	1	1	1	nt	-5	10	-1
CCCc1nc(-c2ccccc2)c(-c2ccc(OC)c(OC)c2)c(=O)[nH]1	i	-2	0	2	-8	2	-7	-12
CCOC(=O)C1CCN(C(=O)COc2ccc(Br)cc2Br)CC1	i	3	3	-2	8	-2	9	-13
O=C(Nc1nnc(/C=C/c2ccccc2)s1)c1ccco1	i	1	0	-1	-22	-5	-5	12
CCC12CN3CC(CC)(CN(C1)C3c1ccccc1Cl)C2O (stereo unspecified)	i	-10	-1	-4	-12	-2	-76	-3
COc1ccc(-c2cc(C(=O)NCc3cn(C)nc3C)c3ccccc3n2)cc1OC	i	-3	4	3	nt	9	-5	-14
O=C(COc1ccc(Cl)cc1)N/N=C/c1cccc2cccnc12	nt	0	2	1	-9	-6	nt	-6
O=C(N[C@H]1CC1c1ccccc1)c1ccc([N+](=O)[O-])cc1 (stereo partly specified)	i	-2	0	0	nt	1	-65	-18
CCS(=O)(=O)N1CCCC(C(=O)NCCN(C)Cc2ccccc2)C1 (stereo unspecified)	i	11	5	5	-13	-4	nt	-6
CN(Cc1ccccc1)C(=O)c1ccc(NC(=O)Cc2cccc(NC(=O)C3CCN(C(=O)C4CCCCC4)CC3)c2)cc1	nt	nt	nt	nt	-6	nt	-17	4
COc1ccc(CN(C(=O)c2ccco2)c2ccc(C)cc2)cc1OC	i	6	-3	1	9	2	-57	5
CCN(CC)c1cc(C)c2cc(NC(=O)c3ccc(Br)o3)ccc2n1	i	-2	11	1	-7	-2	-80	22
O=C(CN1C(=O)NC2(CCCC2)C1=O)N1CCN(S(=O)(=O)c2ccccc2)CC1	i	1	2	1	-2	-22	-11	-9
COc1cc(S(=O)(=O)N2CCN(c3ccccn3)CC2)ccc1Br	i	-6	0	-2	-9	2	0	7
CCN(CC)S(=O)(=O)c1ccc2c(c1)c(=O)c(C(=O)N1CCOCC1)cn2C	i	6	-4	1	-4	2	-11	-8
COCCN(C(=O)CNC(=O)c1ccco1)C(C(=O)NC1CCCC1)c1ccc(F)cc1 (stereo unspecified)	i	4	0	4	-10	5	-12	-4
C[C@H](CO)N1C[C@H](C)[C@@H](CN(C)C(=O)Nc2ccc(C(F)(F)F)cc2)Oc2ccc(NS(=O)(=O)c3ccccc3)cc2C1=O	nt	nt	1	4	-8	nt	1	-2
CC1=N/C(=C/c2ccc([N+](=O)[O-])cc2)C(=O)N1c1ccc(Cl)cc1Cl	i	-2	2	3	-9	62	nt	10	eIF4H FP inh retest=-3;PABP FP inh retest=3
Cc1cc(C)cc(N(CC(=O)N2CCOCC2)S(=O)(=O)c2ccccc2)c1	i	-2	1	0	11	-7	nt	-4
CC1CN(C(=O)c2c([N+](=O)[O-])cnn2C)CC(C)O1 (stereo unspecified)	i	0	5	7	6	-6	13	nt
CCCc1c(C)nc(N2CCN(c3ccccc3OC)CC2)[nH]c1=O	i	-7	2	0	-8	2	9	15
CCOc1cc(C(=O)N/N=C/C2CC=CCC2)cc(OCC)c1OCC (stereo unspecified)	i	-6	4	8	nt	8	-2	14
CCOC(=O)CN(C(=O)CSc1nnc(-c2ccc(OC)c(OC)c2)o1)c1ccc(F)cc1	i	6	-1	-1	0	-9	37	3

Among those listed so far, these contain a furan ring, fused or not.
SMILES	Rce1 inhib	eIF4H FP inh	MT1-MMP act inh	MT1-MMP act inh RFP	UUG fidelity	PABP FP inh	Env fusion inh	CSC inhib	others
O=C(Nc1nnc(/C=C/c2ccccc2)s1)c1ccco1	i	1	0	-1	-22	-5	-5	12
COc1ccc(CN(C(=O)c2ccco2)c2ccc(C)cc2)cc1OC	i	6	-3	1	9	2	-57	5
CCN(CC)c1cc(C)c2cc(NC(=O)c3ccc(Br)o3)ccc2n1	i	-2	11	1	-7	-2	-80	22
COCCN(C(=O)CNC(=O)c1ccco1)C(C(=O)NC1CCCC1)c1ccc(F)cc1 (stereo unspecified)	i	4	0	4	-10	5	-12	-4

Going on with the list:
SMILES	Rce1 inhib	eIF4H FP inh	MT1-MMP act inh	MT1-MMP act inh RFP	UUG fidelity	PABP FP inh	Env fusion inh	CSC inhib	others
CCC(C)[C@H](NC(=O)Nc1ccccc1F)C(=O)OC (stereo partly specified)	i	-8	1	8	nt	2	-8	3
Cc1ccc(CN(C)C(=O)c2cccc(S(=O)(=O)N3CCN(Cc4ccccc4)CC3)c2)o1	i	nt	0	-2	3	nt	-135	-7
CCC(C)NCCOCCOc1ccc(Br)cc1 (stereo unspecified)	i	-3	3	8	-1	3	-6	-9
COC(CNC(=O)c1c[nH]c2ccc(S(=O)(=O)N(C)c3ccc(F)cc3)cc2c1=O)OC	i	11	2	-8	-9	5	-27	-5
Cc1nccn1Cc1cccc2ccccc12	i	4	0	2	-12	2	nt	nt
N/C(=N\OC(=O)c1ccc2c(c1)OCO2)c1ccc(Cl)cc1	i	-15	4	-1	-11	-16	nt	-4
CN(C)S(=O)(=O)Oc1ccsc1C(=O)Nc1ccc(Cl)cc1	nt	0	2	-1	nt	-7	5	-8
COc1ccc(CCNc2cc(C)nc3c(-c4ccccc4)cnn23)cc1OC	i	-1	1	4	nt	-8	2	nt
Cc1[nH][nH]c(=O)c1C(c1ccc(-c2ccc(F)cc2)o1)c1c(C)[nH][nH]c1=O	i	-8	-3	0	nt	-8	16	17
CCCSc1nnc(-c2cccc(S(=O)(=O)N(C)C)c2)n1-c1cc(OC)ccc1OC	i	2	-3	-1	-10	5	25	-5
CCN1CC2CCCC3(C1)C(=O)NC1(CCCCC1)N=C23 (stereo unspecified)	i	7	-10	3	-10	0	-187	nt
COc1ccc(-c2nc(C#N)c(NCc3ccccc3Cl)o2)cc1OC	i	-6	0	-7	nt	-6	nt	3
COC(=O)c1sccc1NC(=S)Nc1ccc(F)cc1F	i	-7	-3	2	nt	-4	-3	-4
Fc1ccc(NC(=S)N2CCn3cccc3C2c2cccnc2)cc1 (stereo unspecified)	i	-5	0	1	-6	21	-6	6
C/C(=N\NC(N)=O)c1ccc(Cl)s1	i	-5	-1	3	-11	0	6	2
O=C(C1CCCCC1)N1CCN(S(=O)(=O)c2ccc(Br)cc2)CC1	i	0	-1	-5	9	8	nt	-16
CC1CCN(C(=O)COC(=O)Cn2cnc3ccccc32)CC1	nt	nt	0	7	-5	nt	-39	0
O=c1c(F)cn(C2CCCO2)c(=O)n1Cc1ccccc1F (stereo unspecified)	i	-8	-2	2	-8	-8	nt	-13
CCn1cc(CN2CCC(C(=O)Nc3ccc(Oc4ccccc4)nc3)CC2)cn1	i	-5	4	-1	-5	-1	-6	15
CCOc1cc(/C=C2/C(=N)N3OC(C)=CC3=NC2=O)ccc1OC(=O)c1ccco1	i	8	-13	-2	nt	-1	-17	-6
CCOC(=O)CCCNC(=O)CCNC(=O)c1ccc(OC)cc1	i	11	1	0	-7	-3	-35	-11
O=C(NCc1ccccc1)NCc1cccs1	i	3	-1	1	nt	2	-7	1
COc1ccccc1C(C#N)N1N=C(C)CC1c1ccccc1 (stereo unspecified)	i	0	-1	2	-12	3	-20	-5
COc1cccc(NC(=O)CCN2CCN(c3ccccc3F)CC2)c1	i	-15	0	-4	-18	-9	11	-3
Cc1ccc(C(=O)N(CC(C)C)c2c(N)n(Cc3ccccc3)c(=O)[nH]c2=O)o1	i	nt	-3	5	nt	nt	25	-4

Further entries.
SMILES	Rce1 inhib	eIF4H FP inh	MT1-MMP act inh	MT1-MMP act inh RFP	UUG fidelity	PABP FP inh	Env fusion inh	CSC inhib	others
COc1ccc(C2c3[nH]c4ccccc4c3C[C@H]3C(=O)N(c4ccccc4C(=O)N4CCC(C(=O)O)CC4)C(=O)N23)cc1 (stereo partly specified)	i	-13	-1	3	8	-3	nt	13
Nc1nnc(C(=O)c2ccccc2N)s1	i	nt	3	-2	-8	nt	nt	nt
CCOC(=O)c1c(NC(=O)C2CCN(S(=O)(=O)c3ccc(Cl)cc3)CC2)sc2c1CCCC2	i	6	-1	-2	-13	9	9	-3
CC(C)(CO)CNC(=O)c1ccc2nc(Cc3cccc(Cl)c3)oc2c1	i	-6	2	-7	-8	-4	-1	-6
CNS(=O)(=O)c1cnccc1N1CCN(c2cccc(C)c2)CC1	i	-2	5	2	-17	-7	nt	-6
Clc1ccc2c(NCCNC3CCCCC3)ccnc2c1	nt	nt	9	6	-22	nt	30	nt
CN1CCN(Cc2nc3ccccc3c(=O)n2Cc2nc(-c3cccc([N+](=O)[O-])c3)cs2)CC1	nt	-1	-8	-1	nt	-2	2	nt
CC1CCCCN1C(=O)c1ccc(C(=O)Nc2ccc(F)cc2)cc1 (stereo unspecified)	nt	nt	1	-3	-14	nt	2	1
CCc1ccc(NC(=O)NC2CCCCCCC2)cc1	i	-9	-6	-3	1	12	-222	-1
Cc1c(C(=O)/C=C/N(C)C)nnn1-c1ccc(Cl)cc1Cl	i	-6	-13	-1	nt	-5	9	5
CC(C)c1csc(CN2CCN(Cc3ccc(F)c(F)c3)C(CCO)C2)n1 (stereo unspecified)	i	-8	4	-4	nt	-8	-7	-8
O=C1N=c2ccccc2=C1c1sc(=S)n(-c2ccc(O)cc2)c1O	i	-19	14	1	-21	3	9	13
COc1ccc(CCNC(=O)c2[nH]c(C)c(C(C)=O)c2C)cc1	i	-1	5	5	-16	0	nt	-2
COc1ccc(NS(=O)(=O)c2cc(NC(=O)C3CCCCC3)ccc2N2CCOCC2)cc1	i	14*	0	-2	nt	68*	9	0	eIF4H FP inh retest=81*;PABP FP inh retest=92*

Among those listed so far, these have bromine.
SMILES	Rce1 inhib	eIF4H FP inh	MT1-MMP act inh	MT1-MMP act inh RFP	UUG fidelity	PABP FP inh	Env fusion inh	CSC inhib	others
CCOC(=O)C1CCN(C(=O)COc2ccc(Br)cc2Br)CC1	i	3	3	-2	8	-2	9	-13
CCN(CC)c1cc(C)c2cc(NC(=O)c3ccc(Br)o3)ccc2n1	i	-2	11	1	-7	-2	-80	22
COc1cc(S(=O)(=O)N2CCN(c3ccccn3)CC2)ccc1Br	i	-6	0	-2	-9	2	0	7
CCC(C)NCCOCCOc1ccc(Br)cc1 (stereo unspecified)	i	-3	3	8	-1	3	-6	-9
O=C(C1CCCCC1)N1CCN(S(=O)(=O)c2ccc(Br)cc2)CC1	i	0	-1	-5	9	8	nt	-16

Source: PubChem

Random draw from the library, and some 2.9% of all compounds hit somewhere here.
